N370S GC – qHTS Assay for Inhibitors and Activators of N370S glucocerebrosidase as a Potential Chaperone Treatment of Gaucher Disease. Lysosomal acid glucosylceramidase (Homo sapiens), P04062. N370S GC spleen homogenate, 4MU-glucoside fluorescence. Potency, µM (doses to about 59.4 µM), inactives show at the highest dose activity change, negative = inhibition, hits mostly inhibitors. 330,000 tested, 0.092% active;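 note: 0% = full enzyme activity and -100% = no enzyme basal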
TDP1 block – qHTS Assay for Inhibitors of Tyrosyl-DNA Phosphodiesterase (TDP1). Tyrosyl-DNA phosphodiesterase 1 (Homo sapiens), Q9NUW8. recombinant TDP1, AlphaScreen DNA substrate cleavage. Potency, µM (doses to about 130 µM), for the others: at the top dose activity change, negative = inhibition, actives largely listed as inhibitors. 350,000 tested, 0.28% active; note: nearly all actives have a fitted effect of over 40% in size
Target sequence (Q9NUW8 whole entry, looked up): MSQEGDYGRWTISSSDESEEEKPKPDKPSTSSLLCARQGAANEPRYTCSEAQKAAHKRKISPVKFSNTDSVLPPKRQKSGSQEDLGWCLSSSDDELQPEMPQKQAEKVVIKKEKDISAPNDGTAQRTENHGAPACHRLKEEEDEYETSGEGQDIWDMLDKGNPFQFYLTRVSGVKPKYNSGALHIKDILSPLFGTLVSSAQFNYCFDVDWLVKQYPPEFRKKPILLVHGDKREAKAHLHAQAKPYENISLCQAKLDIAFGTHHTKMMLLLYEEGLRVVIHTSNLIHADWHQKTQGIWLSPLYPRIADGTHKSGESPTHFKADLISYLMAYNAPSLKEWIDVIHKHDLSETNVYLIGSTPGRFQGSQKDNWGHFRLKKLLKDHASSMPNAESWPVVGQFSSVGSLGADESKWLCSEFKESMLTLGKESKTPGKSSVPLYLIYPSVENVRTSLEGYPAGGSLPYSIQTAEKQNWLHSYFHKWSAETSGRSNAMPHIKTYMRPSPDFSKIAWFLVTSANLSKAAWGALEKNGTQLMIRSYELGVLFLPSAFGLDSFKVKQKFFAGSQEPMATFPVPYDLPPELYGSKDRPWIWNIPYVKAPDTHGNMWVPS
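Enzyme-compound mixtures sat 15 min at room temperature, followed by a 5 min reaction with 15 nM final substrate and 10 min with AlphaScreen beads. Recombinant human Tdp1 was used at 1 nM final.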
* hit, by the source's call; ? = inconclusive; nt = no result given; & = joins results of further samples; [ ] = dose if it differs, or a comment. Calls come from the whole dose curve; as a rule, active = well fitted curve in the direction sought with a large enough effect; inconclusive = small, poorly fitted or top-dose-only effect, or another doubt; inactive = no such curve, though single readings can be large; an effect the other way counts as inactive or inconclusive. Unless noted, % is set by controls: 0 for no effect and ±100 for the full control effect; potency is the fitted concentration of half-maximal effect. An excerpt; most or all hits stand in other tables.

N370S GC	TDP1 block	SMILES
0%	-8%	COc1cc(NC(=S)NN2CCN(C)CC2)cc(OC)c1OC
-3%	5%	O=C(Cc1nc2ccccc2[nH]1)N/N=C/c1ccccc1
7%	4%	COCCNCC(=O)C12CC3CC(CC(C3)C1)C2
-5%	1%	CCc1ccccc1NC1=NCC(=O)N1Cc1ccc(OC)cc1
0%	3%	CCOc1ccc(NC(=O)[C@@H](NC(=O)c2ccccc2)[C@@H](C)CC)cc1
-1%	6%	N#Cc1cc2cc3ccccc3nc2n2c(=O)c3ccccc3nc12
3%	2%	Cc1cc[n+](CC(=O)Nc2cc(C(F)(F)F)ccc2Cl)cc1
7%	8%	CC(=O)Nc1cccc(OCC(=O)/C=C2\N(C)c3ccccc3C2(C)C)c1
-15%	1%	NNC(=O)C(=O)NCCCN1CCOCC1
8%	-8%	Cc1c(C(=O)O)nnn1-c1nonc1N
-13%	5%	COc1ccc(-n2c(-c3ccc(OC)c(OC)c3)n[nH]c2=S)cc1
15%	nt	Cc1ccc(CS(=O)(=O)c2cn(CC(=O)Nc3ccon3)c3ccccc23)cc1
-22%	2%	COc1ccc(NC(=O)CCCn2c(=O)[nH]c3ccccc3c2=O)cc1
?	-5%	Nc1ccc(Cl)cc1C(=O)OCC(=O)NC1CCS(=O)(=O)C1 (stereo unspecified)
?	2%	CC(NC(=O)c1cc2c(s1)CCCC2)C(C)(C)C (stereo unspecified)
-12%	nt	COc1cc2[nH]c(C(=O)N(C)Cc3ccccc3)cc2c(OC)c1OC
26%	-3%	C#CCNC(=O)C1=C[C@H](c2ccc(Br)cc2)C[C@H](OCc2ccc(CO)cc2)O1
-1%	4%	CS/C(=C\C(=O)c1ccco1)Nc1ccccc1Cl
-10%	2%	Cc1ccc2c(c1)nnn2C1CCN(CC(=O)N2CCN(c3ccc(F)cc3)CC2)CC1
-2%	nt	Cc1cc(C)cc(Oc2c(C(F)(F)F)oc3cc(OCC(=O)O)ccc3c2=O)c1
-7%	8%	COc1ccc(Cn2c(C)nc3oc4cc(OC)ccc4c(=O)c3c2=O)cc1
-4%	2%&-1%	Cc1ccc(NC(=O)Cn2ncn3c(cc4ccccc43)c2=O)c(C)c1
1%	nt	O=C(Nc1cccc(Cl)c1)NC1CCS(=O)(=O)C1 (stereo unspecified)
-12%	0%	CCc1ccc(CN(C)CC(=O)Nc2sccc2C#N)cc1
18%	0%	COc1ccc(S(=O)(=O)N2CCCC2)cc1C(=O)N1CCOCC1
nt	0%	CC1CCCC(C)N1C(=O)CSc1nnc(-c2ccco2)n1C (stereo unspecified)
-8%	1%	Cc1ccc(-c2csc(N3C(=N)SCC3=O)n2)cc1
12%	5%	N#C/C(=C\c1ccccc1)C(=O)N(c1ccccn1)C1CCCCC1
1%	0%	COc1ccccc1CNC(=O)C(=O)NCCC1CCCCN1S(=O)(=O)c1ccccc1 (stereo unspecified)
-17%	4%	O=C(CSc1nnc(CNC(=O)c2ccccc2)o1)Nc1ccc2c(c1)OCCO2
-3%	nt	O=C(COC(=O)c1cccs1)Nc1nnc(-c2ccccc2)o1
-10%	-2%	CC(NS(=O)(=O)c1c(N)n(C)c(=O)n(C)c1=O)c1ccccc1 (stereo unspecified)
4%	3%	O=C(Nc1ccccc1)Nc1nnc(/C=C/c2ccccc2Cl)s1
1%	6%	Cn1c(=O)[nH]c(=O)c2c1nc1n2CCN1Cc1ccccc1
3%	0%	COc1ccc(C(=S)N2CCCC2)cc1
nt	0%[56.1 µM]	CC(OC(=O)Cc1ccsc1)C(=O)Nc1ccc(C(N)=O)cc1 (stereo unspecified)
7%	nt	O=C(Nc1ccc(F)cc1)C1COc2ccccc2O1 (stereo unspecified)
2%	3%	c1ccc(-n2ncc3c(NCC4CCCO4)ncnc32)cc1 (stereo unspecified)
7%	3%	Cc1c(NS(=O)(=O)c2cccc(C(=O)NCc3ccccc3)c2)c(=O)n(-c2ccccc2)n1C
-26%[2.35 µM]	3%	CCCCNC(=O)Nc1c(C(=O)OCC)[nH]c2ccccc12

Reprinted from above (4 entries):
N370S GC	TDP1 block	SMILES
7%	nt	O=C(Nc1ccc(F)cc1)C1COc2ccccc2O1 (stereo unspecified)
2%	3%	c1ccc(-n2ncc3c(NCC4CCCO4)ncnc32)cc1 (stereo unspecified)
7%	3%	Cc1c(NS(=O)(=O)c2cccc(C(=O)NCc3ccccc3)c2)c(=O)n(-c2ccccc2)n1C
-26%[2.35 µM]	3%	CCCCNC(=O)Nc1c(C(=O)OCC)[nH]c2ccccc12

(continued)
N370S GC	TDP1 block	SMILES
12%	-2%	Cc1ccc(Cn2cccc(NC(=O)CCC3CCCC3)c2=O)cc1
-6%	9%	C/C(=N\Nc1nc2c(s1)CCCC2)c1ccc(Cl)cc1
-9%	nt	COc1nnc(-c2ccc(C)c(S(=O)(=O)NC(C)C)c2)c2ccccc12
0%	-6%	O=C(OC1CCN(c2ncc(C(F)(F)F)cc2Cl)CC1)c1ccccc1
2%	0%	Cc1nn(S(=O)(=O)N2CCCCC2)c(C)c1Br
1%	-1%	Cc1occc1C(=O)N/N=C/c1ccccn1
-1%	4%	CCOC(=O)CN(C(=O)CN1CCOCC1)c1ccc(Br)cc1
3%	2%	C1=C(C(c2nnnn2C2CCCCC2)N2CCCCC2)COc2ccccc21 (stereo unspecified)
5%	5%	CCn1c(CN2CCN(c3cccc(C)c3C)CC2)n[nH]c1=S
4%	nt	COc1ccc(CC(=O)O/N=C(\N)c2ccccn2)cc1
-2%	nt	CN=C(Nc1ccc(C(=O)OC)s1)c1ccc(Cl)cc1
19%	2%	CCCn1c(SCC(=O)NC2CCCCC2)nnc1-c1ccccn1
?	-2%	CN(CC(=O)Nc1cccc(F)c1)C(=O)c1ccccc1-n1cnnn1
-14%	-1%	COc1cc(/C=N/Nc2nc3ccccc3[nH]c2=O)ccc1O
?	-3%	CCOP(=O)(OCC)c1nc(-c2cccc3ccccc23)oc1NCc1ccc(OC)cc1
?	-3%	O=C(CCNS(=O)(=O)c1ccc(Br)s1)N1CCN(c2ccccc2)CC1
3%	4%	COc1ccc(/C=N/OCC(=O)N=Nc2c(O)[nH]c3ccc(Br)cc23)cc1
-1%	nt	O=C(Nc1ccc(S(=O)(=O)N2CCCC2)cc1)c1ccc(Cl)nc1
14%	3%	CCOc1ccc(C2CC(c3ccc(OC)c(OC)c3)n3nc(N)nc3N2)cc1 (stereo unspecified)
20%	2%	CCOc1ccccc1NC(=O)Nc1ccc(Br)cn1
9%	-3%	CCOc1ccccc1NC(=O)CN(C)S(=O)(=O)c1ccc(OC)c(C)c1
-11%	3%	CCOC(=O)/C(C(N)=NC(C)C)=C(\O)c1ccccc1
-13%	-1%	COc1cc(C2N3CC4(C)CN2CC(C)(C3)C4)ccc1O (stereo unspecified)
4%	6%	CCOC(=O)c1c(C)[nH]c(C)c1S(=O)(=O)N(C)CC(=O)NCc1cccc(C)c1
26%	1%	Nc1ccccc1S(=O)(=O)NC1=NCCCCC1
-3%	12%	Cc1ccc(S(=O)(=O)NCCn2nc(C)nc2C)cc1
nt	2%	C=CCn1c(SCC(=O)N(CC)C2CCS(=O)(=O)C2)nc2sc3c(c2c1=O)CCC3 (stereo unspecified)
-5%	nt	O=C(CCOc1ccccc1)Nc1ccnn1C1CCN(Cc2ccc(O)cc2)CC1
1%	7%	COc1ccc(/C(O)=C(\C#N)c2nc3ccccc3n2C)cc1OC
-27%	-1%	CC1CN(c2ccc(S(=O)(=O)N3CCOCC3)cn2)CC(C)O1 (stereo unspecified)
8%	-1%	Cc1ccc(C(=O)NC(C)c2ccc(F)cc2)cc1 (stereo unspecified)
2%	8%	CCOC(=O)N1CCN(c2c(NCc3ccc(F)cc3)c(=O)c2=O)CC1
13%	nt	Cc1oc(-c2ccc(Cl)cc2)cc1C(=O)O
4%	3%	Cc1ccccc1NC(=O)c1ccc(OCC(=O)Nc2ccccc2F)cc1
-8%	13%	O=C(CCc1ccccc1)Nc1ccc(S(=O)(=O)Nc2nccs2)cc1
-3%	4%	O=C(Nc1ccc2c(c1)OCO2)c1ccc(Br)s1
1%	9%	Cn1cnc(S(=O)(=O)Nc2cc(C(F)(F)F)ccc2N2CCOCC2)c1
0%	6%	COc1cc(C(=O)Nc2cc(C)cc(C)c2)c(-n2cnnn2)cc1OC
-1%	5%	O=C(Nc1ccc(N2CCOCC2)cc1)C1=NN(c2ccccc2)C(=O)CC1
11%	4%	Cc1cccc(N2CC(C)Cn3c2nc2c3c(=O)n(CC(=O)OCc3ccccc3)c(=O)n2C)c1 (stereo unspecified)

Fetched one by one from the list above (3):
N370S GC	TDP1 block	SMILES
-3%	12%	Cc1ccc(S(=O)(=O)NCCn2nc(C)nc2C)cc1
-13%	-1%	COc1cc(C2N3CC4(C)CN2CC(C)(C3)C4)ccc1O (stereo unspecified)
8%	-1%	Cc1ccc(C(=O)NC(C)c2ccc(F)cc2)cc1 (stereo unspecified)

(list continues)
N370S GC	TDP1 block	SMILES
4%	8%	COc1ccc(-n2ncc3c2CC(C)(C)CC3NC(=O)c2ccc(OC)o2)cc1 (stereo unspecified)
-6%	7%	CCOC(=O)CNC(=O)Cn1cnc2sc(C)c(S(=O)(=O)N3CCOCC3)c2c1=O
-6%	8%	CCCCC1CCC(C(=O)N2CCOCC2)CC1 (stereo unspecified)
-2%	0%	CCc1noc(C)c1C(=O)N1CCCC1
15%	1%	Cc1cc(C)cc(NC(=O)NNC(=O)c2cc3occc3[nH]2)c1
nt	-2%	O=C(/C=C/c1cc(Br)ccc1F)OCC(=O)N1CCCC1
26%	12%	O=C(CSc1nc(-c2ccccc2)c(-c2ccccc2)[nH]1)Nc1nccs1
-15%	3%	NC(=O)C1CCN(C(=O)CSCc2ccccc2Cl)CC1
0%	5%	O=C(CNC(=O)c1ccccc1F)NCCN1C(=O)S/C(=C\c2ccccc2Cl)C1=O
8%	3%	COc1ccc2[nH]cc(CCNS(=O)(=O)Cc3ccccc3)c2c1
20%	2%	O=C(COC(=O)c1ccccc1OCC(=O)Nc1ccc(Br)cc1)Nc1ccccc1
2%	0%	CCOC(=O)c1oc2cccc(O)c2c1CN1CCOCC1
3%	4%	COc1cccc(OCCSc2nc(N)cc(N)n2)c1
-9%	-10%	O=C(NCCCN1CCOCC1)C1CCN(S(=O)(=O)c2ccccc2)CC1
19%	-6%	COc1ccc(CN2CCN(S(=O)(=O)c3ccc(NC(C)=O)cc3)CC2)c(OC)c1OC
0%	2%[56.1 µM]	CC(/C=N/NC(=O)c1ccccc1F)=C\c1ccccc1
-3%	12%	COc1ccc(OC)c(NC(=O)CSc2nnc(Cc3cccn3C)n2-c2ccc(F)cc2)c1
-6%	nt	CCN(CC(=O)Nc1ccc(NC(C)=O)cc1)C(=O)CCCSc1nc2ccccc2[nH]1
1%	-3%	Cc1ccc(S(=O)(=O)N2CCCCC2)cc1NC(=O)Nc1ccc(Cl)cc1Cl
-2%	5%	O=C(NCc1ccccc1)c1ccc(=O)[nH]n1
-4%	4%	COc1cccc(C(=O)Nc2nc(SCc3ccc(Cl)cc3)n[nH]2)c1
nt	-1%	COc1ccc(NC(=O)c2cccc3c2C(=O)c2ccc(-c4cnc(OC)nc4)cc2S3(=O)=O)cc1
-1%	nt	O=C(CCC(=O)N1CCN(Cc2ccc(F)cc2)CC1)Nc1nnc(C(F)(F)F)s1
-5%	-5%	CCOc1ccc(NC(=O)Nc2cccnc2)cc1
6%	nt	CC/C(C)=N/Oc1nc(C)cc(C)n1
nt	3%	CCN1CCN(CC(=O)Nc2cc(S(=O)(=O)N(CC)c3ccccc3)ccc2Cl)CC1
?	4%	CCn1c(SCC(=O)Nc2cccc(OC)c2)nc2ccccc2c1=O
-4%	2%[56.1 µM]	CCOc1ccc(S(=O)(=O)NCCC(=O)NCC2(N3CCCCC3)CCCCC2)cc1
-28%	nt	COCCN(C(=O)COC(=O)CCn1c(C)csc1=O)c1c(N)n(Cc2ccccc2)c(=O)[nH]c1=O
0%	1%	COc1ccc(CCN(C)C(=O)c2oc3ccccc3c2C)cc1OC
1%	2%	CCCn1nc(Oc2nc(NCC)nc(NCC)n2)ccc1=O
-1%	nt	O=C(O)C1CCCN1C(=O)C12CC3CC(CC(C3)C1)C2 (stereo unspecified)
?	1%	CC1=CC(=C(C#N)c2nc3ccccc3s2)C=C(C)N1Cc1ccco1

Some of these compounds in order of their number in N370S GC, highest first:
N370S GC	TDP1 block	SMILES
7%	nt	O=C(Nc1ccc(F)cc1)C1COc2ccccc2O1 (stereo unspecified)
-9%	-10%	O=C(NCCCN1CCOCC1)C1CCN(S(=O)(=O)c2ccccc2)CC1
-15%	1%	NNC(=O)C(=O)NCCCN1CCOCC1
